Screens from PubChem.
ALR inh – inhibitors of human ALR sulfhydryl oxidase, primary screen, biochemical, H2O2 detection, HRP-luminol luminescence, single point. actives 3.8% (n = 290,000). AID 485317, 2010. inhibition, % (no concentration beside the values). FAD-linked sulfhydryl oxidase ALR (Homo sapiens), P55789. purified ALR, DTT oxidation;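 active = mean and each replicate at 75% or more; inconclusive = only one of the two met; inactive = neither met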;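 note: stock transfer was 7.5 nL into about 7.5 µL; 0% = neutral wells and 100% = wells with inactivated enzyme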
HNF4A DNA FP – change in binding of human HNF4A to DNA, primary screen, biochemical, fluorescence polarization, FITC-DNA | actives 0.3% (n = 360,000) | activity change, % at 10 µM | AID 1224865, 2016 | 1 h; in the data active = activity change above about 30%, passing the limit was not always enough;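 note: controls were the assay level and a saturating level of protein; the project sought stronger binding though the title names inhibitors; some compounds called inactive have numbers as strong as hits; positive values seem to mean higher polarization but the record does not say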
Target sequence (P41235 whole entry, looked up): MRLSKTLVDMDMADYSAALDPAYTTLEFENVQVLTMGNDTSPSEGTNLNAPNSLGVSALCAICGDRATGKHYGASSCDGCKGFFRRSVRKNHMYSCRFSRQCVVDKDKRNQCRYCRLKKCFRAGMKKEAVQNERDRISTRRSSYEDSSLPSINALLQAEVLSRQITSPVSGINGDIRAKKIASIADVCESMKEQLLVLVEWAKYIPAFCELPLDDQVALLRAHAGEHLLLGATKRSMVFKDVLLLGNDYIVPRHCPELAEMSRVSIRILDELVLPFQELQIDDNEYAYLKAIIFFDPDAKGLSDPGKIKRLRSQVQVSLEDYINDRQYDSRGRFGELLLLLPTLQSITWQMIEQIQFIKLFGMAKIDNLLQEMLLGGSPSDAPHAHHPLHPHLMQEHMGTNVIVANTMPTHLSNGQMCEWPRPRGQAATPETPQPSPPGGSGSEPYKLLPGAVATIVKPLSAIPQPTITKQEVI
UCH37 DUB inh – inhibitors of human UCH37 deubiquitinase, primary screen, biochemical, Ub-AMC cleavage, fluorescence | Ubiquitin carboxyl-terminal hydrolase isozyme L5 (Homo sapiens), Q9Y5K5 | purified proteasome/UCH37 | inhibition, % (no concentration beside the values) | actives 0.33% (n = 330,000) | AID 588478, 2011;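 active = mean of two replicates above 20%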;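 note: 0% = compound-free wells with enzyme and 100% = wells lacking proteasome; stock transfer was 100 nL into about 20 µL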
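assay system = human UCH37 enzyme supplied as purified proteasome complex | amount = proteasome at 0.15 nM in the dispensed enzyme solution | schedule = 30 min compound-proteasome preincubation then 25 min substrate reaction, room temperature | measured by = fluorescence, ex 355 nm, em 460 nm | benchmarks = no-proteasome wells (full inhibition) and compound-free wells (no inhibition)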
B2AR ag – beta2AR agonists driving receptor internalization, primary screen, cell-based, FAP fluorogen, flow cytometry | Beta-2 adrenergic receptor (Homo sapiens), P07550 | Am2.2-beta2AR cells; reference of the scale not given here | response, % (no concentration beside the values) | actives 0.43% (n = 340,000) | AID 504454, 2011;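 active = response above a set limit, near 3 SD of response in nonfluorescent compounds, cut at about 42% in these data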;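 note: stock transfer was 100 nL into about 11 µL; a reference agonist was the positive control; negative values mostly stem from fluorescent compounds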
Target sequence (P07550 whole entry, looked up): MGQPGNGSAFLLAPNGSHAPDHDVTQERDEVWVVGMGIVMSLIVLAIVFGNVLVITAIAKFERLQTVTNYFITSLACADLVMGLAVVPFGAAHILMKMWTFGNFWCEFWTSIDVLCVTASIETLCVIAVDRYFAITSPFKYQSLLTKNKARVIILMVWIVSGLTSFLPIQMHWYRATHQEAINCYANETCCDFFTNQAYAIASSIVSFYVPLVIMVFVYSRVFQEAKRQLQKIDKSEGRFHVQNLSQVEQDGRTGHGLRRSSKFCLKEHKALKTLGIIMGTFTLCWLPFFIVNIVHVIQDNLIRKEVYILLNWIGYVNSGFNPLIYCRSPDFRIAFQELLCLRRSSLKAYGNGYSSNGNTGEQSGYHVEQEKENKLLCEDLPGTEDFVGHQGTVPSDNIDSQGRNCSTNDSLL
rRNA inh HTS – reduced GFP signal of wild-type E. coli, primary screen, bacterial rRNA inhibitor project, GFP/RFP fluorescence, OD600, single point; actives 1.6% (n = 350,000); GFP signal change (wild-type ribosome), % (test concentration not listed); E. coli WT GFP vs humanized-ribosome RFP mutants, 24 h; stronger effect = lower value; DMSO median 0, no signal -100; AID 720706, 2013;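 active = significant combined selectivity score with lowered wild-type GFP, culture density cut under 30%, mutant RFP and density less affected; inactive = any of these conditions unmet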; note: one replicate is shown; some compounds called inactive have numbers as strong as hits
FGF22 binding – binders of human FGF22 protein, primary screen, FGF22 synaptogenesis inhibitor project, biophysical, thermal shift, single point; recombinant FGF22 thermal shift, SYPRO orange fluorescence; percent of sucrose octasulfate shift, DMSO zero; AID 651658, 2012; calls only at 9.99 µM; actives 1.5% (n = 340,000); Fibroblast growth factor 22 (Homo sapiens), Q9HCT0;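 active = melting point raised past a set limit in the mean and every replicate; inconclusive = no clear call; three in four hits are not shown here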
Target sequence (Q9HCT0 whole entry, looked up): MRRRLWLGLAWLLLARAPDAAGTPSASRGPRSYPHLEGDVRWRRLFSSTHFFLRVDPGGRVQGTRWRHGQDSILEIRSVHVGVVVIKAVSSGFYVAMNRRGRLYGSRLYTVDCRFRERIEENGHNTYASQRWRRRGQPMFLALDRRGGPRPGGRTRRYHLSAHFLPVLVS
E coli growth – E. coli growth inhibition, primary screen, OD600. Escherichia coli growth, 23 h; stronger effect = lower value. OD600 absorbance (test concentration not listed). actives 0.21% (n = 330,000);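 active = OD600 absorbance below the run mean of sample wells minus 3.6 SD, in any replicate, cut at about 0.56 in these data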;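 note: stock transfer was 300 nL into about 60 µL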
rRNA inh HTS OD600 – recorded beside rRNA inh HTS, whose call it bears; OD600 change, %; measured here: OD600 growth;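 optical density of the mix in the first replicate; 0 = DMSO median and -100 = no signal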
rRNA inh HTS RFP – also measured in rRNA inh HTS; calls as there; RFP signal change, %; measured here: RFP humanized mutant strains;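 first replicate; 0 = DMSO median and -100 = no signal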
Active calls of the source: *; & = joins results of further samples. An excerpt. The share of hits here may be higher or lower than overall.

What do the screens show for `Cc1cnc(CNC(=O)C2(C)CCCN2CC(C)C)cn1` (stereo not drawn)?
HNF4A DNA FP: -4.8; rRNA inh HTS: 15; FGF22 binding: inactive; rRNA inh HTS OD600: 17; rRNA inh HTS RFP: -0.9

How did CCc1nc2c(OCc3ccc(Cl)cc3)cccn2c1N(C)C(=O)c1ccc(C)cc1 do in these assays?
HNF4A DNA FP: -0.1; rRNA inh HTS: -19; FGF22 binding: inactive; rRNA inh HTS OD600: -33; rRNA inh HTS RFP: 1.1

Results for O=C(Cc1ccccc1F)Nc1nc(-c2cccnc2)cs1 ?
ALR inh: -13; HNF4A DNA FP: 0.8; UCH37 DUB inh: 2.8; B2AR ag: -2; rRNA inh HTS: 6; FGF22 binding: inactive; E coli growth: 0.66; rRNA inh HTS OD600: 8; rRNA inh HTS RFP: 0.1

Results for Cc1ccc(CSc2nnc(SCC(=O)N/N=C/C=C/c3ccco3)s2)cc1 ?
ALR inh: -14; HNF4A DNA FP: -0.4; B2AR ag: 0

What do the screens show for `CCCC(C)C(=O)Nc1nc(C)c(-c2csc(Nc3ccc(Cl)cc3)n2)s1` (stereo not drawn)?
ALR inh: -4; HNF4A DNA FP: 12; UCH37 DUB inh: -2.8; B2AR ag: 11; rRNA inh HTS: 3; FGF22 binding: inactive; E coli growth: 0.7; rRNA inh HTS OD600: 9; rRNA inh HTS RFP: 0.9

Results for CS(=O)(=O)c1ccc(Cl)c(NC(=O)c2cccc(N3C(=O)CCC3=O)c2)c1 ?
ALR inh: -11; HNF4A DNA FP: -1.5; UCH37 DUB inh: 0.5; B2AR ag: 1; rRNA inh HTS: 2; FGF22 binding: inactive; E coli growth: 0.69; rRNA inh HTS OD600: 12; rRNA inh HTS RFP: 0.2

How did CC(C)NC(=O)NC(=O)COC(=O)c1cc(S(=O)(=O)N2CCCCC2)ccc1N1CCOCC1 do in these assays?
ALR inh: 7; HNF4A DNA FP: 1.3; UCH37 DUB inh: 4.6; B2AR ag: 6; rRNA inh HTS: -5; FGF22 binding: inactive; E coli growth: 0.69; rRNA inh HTS OD600: -4; rRNA inh HTS RFP: 0.9

What do the screens show for `Cc1nc2c(OCc3ccccc3)cccn2c1N(C)C(=O)C1CCCCC1`?
HNF4A DNA FP: 4.6; rRNA inh HTS: -26; FGF22 binding: inactive; rRNA inh HTS OD600: -60; rRNA inh HTS RFP: 13

Results for CCc1nnc(NC(=O)c2ccc(-c3ccc(C(C)=O)cc3)o2)s1 ?
ALR inh: 18; HNF4A DNA FP: 0.9; UCH37 DUB inh: -39; B2AR ag: 5; rRNA inh HTS: -1; FGF22 binding: inactive; E coli growth: 0.67; rRNA inh HTS OD600: 10; rRNA inh HTS RFP: -2.4

Results for CN(O)C(=S)c1ccccc1 ?
HNF4A DNA FP: 1.3; B2AR ag: 7; rRNA inh HTS: -58; FGF22 binding: inactive; rRNA inh HTS OD600: -75; rRNA inh HTS RFP: -15

How did Cc1noc(C)c1C(=O)N1CCCC(C(=O)c2cccc(OC(C)C)c2)C1 (stereo not drawn) do in these assays?
HNF4A DNA FP: 0.5; UCH37 DUB inh: 1.1; B2AR ag: -1; rRNA inh HTS: 3; FGF22 binding: inactive; E coli growth: 0.7; rRNA inh HTS OD600: 1; rRNA inh HTS RFP: -0.7

How did CCCCc1ccc(NC(=O)NCc2ccccn2)cc1 do in these assays?
ALR inh: -9; HNF4A DNA FP: 1.2; UCH37 DUB inh: 1.6; B2AR ag: -7; rRNA inh HTS: -3; FGF22 binding: inactive; E coli growth: 0.65; rRNA inh HTS OD600: -7; rRNA inh HTS RFP: 2.6

How did Clc1ccc(-c2cn3c(n2)SCC3)cc1 do in these assays?
ALR inh: 23; HNF4A DNA FP: 4.4; UCH37 DUB inh: 1.9; B2AR ag: -6; rRNA inh HTS: -13; FGF22 binding: inactive; E coli growth: 0.63; rRNA inh HTS OD600: -10; rRNA inh HTS RFP: -4.4

Results for CS(=O)(=O)c1ccc(Cl)c(NC(=O)CCNC(=O)c2ccco2)c1 ?
ALR inh: -14; HNF4A DNA FP: 2.2; UCH37 DUB inh: -2.5; B2AR ag: 10; rRNA inh HTS: 14; FGF22 binding: inactive; E coli growth: 0.72; rRNA inh HTS OD600: 8; rRNA inh HTS RFP: 0.9

Results for Cc1oc(-c2ccc(Cl)cc2)nc1CN1CCCC(C(=O)N2CCOCC2)C1 (stereo not drawn) ?
ALR inh: -5; HNF4A DNA FP: -1.0; UCH37 DUB inh: -2.2; B2AR ag: 5; rRNA inh HTS: 11; FGF22 binding: inactive; E coli growth: 0.68; rRNA inh HTS OD600: 3; rRNA inh HTS RFP: 1.1

What do the screens show for `Cc1cc(-c2c(C)[nH]n(-c3ccc(Cl)cc3)c2=O)n[nH]1`?
ALR inh: inconclusive; HNF4A DNA FP: 1.9; UCH37 DUB inh: 0.5; B2AR ag: 11; E coli growth: 0.73

What do the screens show for `O=C(CNc1cccc2ccccc12)N/N=C/C=C/c1ccco1`?
ALR inh: -7; HNF4A DNA FP: -0.3; B2AR ag: -2; rRNA inh HTS: -20; rRNA inh HTS OD600: -30; rRNA inh HTS RFP: 1.4

What do the screens show for `COC(=O)CSc1nnc(-c2ccncc2)o1`?
ALR inh: -11; HNF4A DNA FP: -7.8; UCH37 DUB inh: 7.1; B2AR ag: 12; E coli growth: 0.67

What do the screens show for `COc1ccc(C(c2nnnn2Cc2ccccc2)N2CCN(c3ccccc3)CC2)cc1` (stereo not drawn)?
ALR inh: 4; HNF4A DNA FP: -2.3; UCH37 DUB inh: 4.6; B2AR ag: 7; E coli growth: 0.77

Results for CCN1CCSc2ccc(C(=O)NCc3ccccc3Br)cc21 ?
ALR inh: 6; HNF4A DNA FP: 0.1; UCH37 DUB inh: -48; B2AR ag: -1; rRNA inh HTS: -1; FGF22 binding: inactive; E coli growth: 0.7; rRNA inh HTS OD600: -11; rRNA inh HTS RFP: 0.1

Pulled by compound from the entries so far (2):
What do the screens show for `CCCC(C)C(=O)Nc1nc(C)c(-c2csc(Nc3ccc(Cl)cc3)n2)s1` (stereo not drawn)?
ALR inh: -4; HNF4A DNA FP: 12; UCH37 DUB inh: -2.8; B2AR ag: 11; rRNA inh HTS: 3; FGF22 binding: inactive; E coli growth: 0.7; rRNA inh HTS OD600: 9; rRNA inh HTS RFP: 0.9

Results for O=C(Cc1ccccc1F)Nc1nc(-c2cccnc2)cs1 ?
ALR inh: -13; HNF4A DNA FP: 0.8; UCH37 DUB inh: 2.8; B2AR ag: -2; rRNA inh HTS: 6; FGF22 binding: inactive; E coli growth: 0.66; rRNA inh HTS OD600: 8; rRNA inh HTS RFP: 0.1

(list continues)
What do the screens show for `O=C(C[C@H]1C[C@H]2c3cc(NS(=O)(=O)c4ccc(F)cc4)ccc3O[C@H]2[C@H](CO)O1)NCc1ccncc1`?
HNF4A DNA FP: -3.7; rRNA inh HTS: 4&3; FGF22 binding: inactive; rRNA inh HTS OD600: 6&6; rRNA inh HTS RFP: 0.6&-4.3

How did O=C(NCCc1ccco1)c1ccc(OCc2cn3ccccc3n2)cc1 do in these assays?
ALR inh: -1; HNF4A DNA FP: -13; UCH37 DUB inh: -0.8; B2AR ag: 0; rRNA inh HTS: -10; FGF22 binding: inactive; E coli growth: 0.63; rRNA inh HTS OD600: -19; rRNA inh HTS RFP: 3.3

Results for CC(C)(C)OC(=O)N(CCc1ccccc1)Cc1cccc(OCc2cccc(NC(=O)c3ccccc3)c2)c1 ?
HNF4A DNA FP: -2.1; B2AR ag: -1; rRNA inh HTS: -7; FGF22 binding: inactive; rRNA inh HTS OD600: -10; rRNA inh HTS RFP: 2.0

Results for COc1ccc(-c2coc3cc4oc(=O)cc(C)c4cc23)cc1F ?
ALR inh: -6; HNF4A DNA FP: -4.0; UCH37 DUB inh: -23; B2AR ag: 26; E coli growth: 0.64

Results for CC1=NN(C(=O)c2ccc(Cn3nc(C)c([N+](=O)[O-])c3C)o2)C(O)(C(F)(F)F)C1 (stereo not drawn) ?
ALR inh: 2; HNF4A DNA FP: -2.6; UCH37 DUB inh: 2.5; B2AR ag: 2; rRNA inh HTS: -3; FGF22 binding: inactive; E coli growth: 0.67; rRNA inh HTS OD600: 1; rRNA inh HTS RFP: -0.8

How did CCOc1ccc(CCNC(=O)CS(=O)Cc2nc(-c3ccc(C)cc3)oc2C)cc1OCC (stereo not drawn) do in these assays?
ALR inh: 98*; HNF4A DNA FP: 0.1; UCH37 DUB inh: 1.3; B2AR ag: -1; rRNA inh HTS: 0; FGF22 binding: inactive; E coli growth: 0.73; rRNA inh HTS OD600: -1; rRNA inh HTS RFP: 0.7

Results for O=C(/C=C/c1ccccc1)NCCc1ccc2c(c1)OCCO2 ?
HNF4A DNA FP: 1.7; UCH37 DUB inh: -3.3; B2AR ag: -9; rRNA inh HTS: -6; FGF22 binding: inactive; E coli growth: 0.66; rRNA inh HTS OD600: -6; rRNA inh HTS RFP: -0.9

How did Cc1ccc(Sc2cc(C)nc(-c3ccccn3)n2)cc1 do in these assays?
ALR inh: 18; HNF4A DNA FP: 0.5; B2AR ag: -16; rRNA inh HTS: -49; FGF22 binding: inactive; rRNA inh HTS OD600: -81; rRNA inh HTS RFP: -14

How did CC(NC(=O)c1ccccc1Cl)C1CC2CCC1C2 (stereo not drawn) do in these assays?
ALR inh: -5; HNF4A DNA FP: 1.1; UCH37 DUB inh: 2.4; B2AR ag: -2; rRNA inh HTS: -1; FGF22 binding: inactive; E coli growth: 0.7; rRNA inh HTS OD600: -6; rRNA inh HTS RFP: -1.0

What do the screens show for `Cc1ccc(-n2nc3ccc(NC(=O)c4ccc5c(c4)OCO5)cc3n2)cc1`?
ALR inh: -6; HNF4A DNA FP: 2.7; UCH37 DUB inh: -2.5; B2AR ag: 3; E coli growth: 0.77

How did N#Cc1ccc(OCC(=O)NCCN2CCOCC2)cc1 do in these assays?
ALR inh: -1; HNF4A DNA FP: -1.5; UCH37 DUB inh: 5.2; B2AR ag: -5; rRNA inh HTS: 1; FGF22 binding: inactive; E coli growth: 0.67; rRNA inh HTS OD600: 8; rRNA inh HTS RFP: -0.5

How did NC(=O)[C@H]1CC2(CC(c3cccc(NC(=O)[C@H]4CCC(=O)N4)c3)=NO2)CN1C(=O)c1ccccc1 (stereo partly drawn) do in these assays?
ALR inh: 11; HNF4A DNA FP: -0.8; UCH37 DUB inh: 4.6; B2AR ag: -1; rRNA inh HTS: 12; FGF22 binding: inactive; rRNA inh HTS OD600: 8; rRNA inh HTS RFP: 0.9

How did COc1ccccc1NC(=O)COc1ccc(/C=N/NS(=O)(=O)c2ccc(C)cc2)cc1 do in these assays?
ALR inh: 2; HNF4A DNA FP: 1.4; B2AR ag: -1

How did CN(C)C(=O)c1cccc(-c2cccc3nccn23)c1 do in these assays?
HNF4A DNA FP: 0.5; rRNA inh HTS: 3; FGF22 binding: inactive; rRNA inh HTS OD600: 9; rRNA inh HTS RFP: 6.9

What do the screens show for `Cc1ccc(C=NCc2ccncc2)c(O)c1`?
ALR inh: 4; HNF4A DNA FP: 0.9; UCH37 DUB inh: 4.3; B2AR ag: 2; E coli growth: 0.67
